From PubChem
Sa growth inh: S. aureus growth inhibition at 42 and 30 °C, primary screen, LtaS inhibitor project, RN4220, two temperatures. AID 720641, 2013. hit rate 0.53% among 170,000. relative growth, % (no concentration beside the values). OD600, 20 h, 42 °C; active compounds read low;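 active = growth at 42 °C up to 50% and 20 or more points under that at 30 °C, or under 10% at both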;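 note: 300 nL library stock went into each well; scaled to the means of positive and negative controls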
GIV-Gai inh: inhibitors of GIV peptide binding to Galpha-i3, primary screen, biochemical, fluorescence polarization, FITC-GIV GBA peptide, rat Galphai3. AID 1224905, 2016. hit rate 0.42% among 210,000. 90 min; active compounds read low; scaled: aluminum fluoride 0%, vehicle 100%. percent of control (FP), % (test concentration not listed);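 active = replicate mean at 85% of control or lower, very high polarization wells dropped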;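 note: lower values mean more displacement of the GIV peptide from Galpha-i3; wells of about 15 µL received 100 nL stock; the first replicate is given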
Target sequence (P08753 whole entry, looked up): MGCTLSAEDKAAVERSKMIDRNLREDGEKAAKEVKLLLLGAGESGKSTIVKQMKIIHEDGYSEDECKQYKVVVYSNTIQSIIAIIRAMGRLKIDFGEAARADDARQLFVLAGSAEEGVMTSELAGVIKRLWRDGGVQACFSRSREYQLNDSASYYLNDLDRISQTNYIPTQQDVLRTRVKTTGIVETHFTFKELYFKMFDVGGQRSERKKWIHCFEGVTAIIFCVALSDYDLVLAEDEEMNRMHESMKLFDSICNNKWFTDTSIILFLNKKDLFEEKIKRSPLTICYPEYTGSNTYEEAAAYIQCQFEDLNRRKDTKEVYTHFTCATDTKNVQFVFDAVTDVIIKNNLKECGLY
HCMV UL50-53 inh: inhibitors of HCMV UL50-UL53 interaction, biochemical, HTRF; AID 1918969, 2023; hit rate 0.15% among 190,000; normalized percent inhibition; inhibition, % (test concentration not listed);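 active = both replicates at 50% or more, plus weaker picks with an unusually low signal ratio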;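 note: stock transfer was 100 nL into about 20 µL; 0% = negative control wells and 100% = wells with untagged competitor protein; inactives centre near -12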
Sa growth inh second temp: second read-out of Sa growth inh, no call of its own (marks repeat the call); relative growth, %; measured here: growth at 30 °C;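 optical density after 20 h as mean of two plates; 100% = untreated growth and lower means inhibition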
* = called active by the depositor; nt = no result given; & = joins results of further samples.

SMILES	Sa growth inh	Sa growth inh second temp	GIV-Gai inh	HCMV UL50-53 inh
COC(=O)C1=C(C)SC(N)=C(C#N)C1c1ccc(OC(C)C)c(OC)c1 (configuration not stated)	99	77	nt	-35
Clc1nnc(N2CCSCC2)c2ccccc12	nt	nt	112	-20
Nc1c(Nc2ccc(F)cc2)sc2c(O)cc(=O)[nH]c12	82	68	nt	-36
CC1=C(C(=O)N(C)C)C(c2ccccc2)NC(=S)N1 (configuration not stated)	105	97	102	8
CSc1nn(-c2ccccc2)cc1C(=O)Oc1ccc(Cl)cc1	110	86	102	3
CC(C)c1ccc(NC(=O)CSC2=Nc3ccccc3C3=NC(CCC(=O)NC4CCCCC4)C(=O)N23)cc1 (configuration not stated)	109	89	98	nt
O=C(O)c1ccc(N2N=C(C(F)(F)F)/C(=C/c3ccc(-c4ccc5c(c4)C(=O)NC5=O)o3)C2=O)cc1	95	74	nt	-39
CC1CC(C)CN(C(=O)Cn2c(SCC(=O)N(C(C)C)C(C)C)nc3ccccc32)C1 (configuration not stated)	113	95	104	10
COc1cccc(CNC(=O)CCn2c(=O)c3cccn3c3ccc(F)cc32)c1OC	97	68	97	-2
Cc1c2cnn(-c3ccccc3)c(=O)c2c(C)n1CCCC(=O)NC(C)C	85	72	102	-1
CCCCn1c(SCC(=O)NCc2ccco2)nc2ccccc2c1=O	119	83	101	-18
CCNCc1ccc(N(C)C)cc1	102	90	nt	-26
CCOc1cc(/C=C2/NC(=O)N(c3ccccc3)C2=O)cc(Br)c1O	95	76	127	-33
Cc1ccnc(S/C=C/C(=O)c2ccccc2)n1	93	92	95	3
N#Cc1cnc(SCCc2ccccc2)nc1N	111	82	180	-15
O=C(Cc1n[nH]c(=O)c2ccccc12)N/N=C/c1ccncc1	94	88	103	-9
CC1=CC(C)(C)N(C(=O)CSc2nnc(-c3ccccc3)o2)c2ccccc21	81	76	104	-19
O=C(/C=C/c1ccccc1)CC(O)(c1ccccc1)C(F)(F)F (configuration not stated)	78	44	104	nt
CNC(=S)Nn1cnc2ccccc21	111	89	nt	-13
Cc1ccc(NC(=O)C(NS(=O)(=O)c2ccc3nc(C)sc3c2)C(C)C)cc1 (configuration not stated)	106	93	98	nt
CNC(=O)c1ccc(OC(C)=O)cc1	100	79	nt	3
CN(C1=NS(=O)(=O)c2ccccc21)c1ccccc1	98	94	105	-6
O=C(NC1CC1)c1ccc(CS(=O)c2ccccc2)o1 (configuration not stated)	79	84	115	nt
COc1ccc(S(=O)(=O)Nc2cccnc2)cc1-c1nc(C(C)C)no1	nt	nt	107	22
C=CCSc1nc2ccccc2n1CN1CCCC(C(N)=O)C1 (configuration not stated)	78	89	nt	-41

Sorted by length of the SMILES (smallest number first): part of the list above.
SMILES	Sa growth inh	Sa growth inh second temp	GIV-Gai inh	HCMV UL50-53 inh
CNC(=S)Nn1cnc2ccccc21	111	89	nt	-13
N#Cc1cnc(SCCc2ccccc2)nc1N	111	82	180	-15
CN(C1=NS(=O)(=O)c2ccccc21)c1ccccc1	98	94	105	-6
O=C(/C=C/c1ccccc1)CC(O)(c1ccccc1)C(F)(F)F (configuration not stated)	78	44	104	nt
Cc1c2cnn(-c3ccccc3)c(=O)c2c(C)n1CCCC(=O)NC(C)C	85	72	102	-1
CC1=CC(C)(C)N(C(=O)CSc2nnc(-c3ccccc3)o2)c2ccccc21	81	76	104	-19
Cc1ccc(NC(=O)C(NS(=O)(=O)c2ccc3nc(C)sc3c2)C(C)C)cc1 (configuration not stated)	106	93	98	nt

Carrying on.
SMILES	Sa growth inh	Sa growth inh second temp	GIV-Gai inh	HCMV UL50-53 inh
COc1ccc(CNc2n[nH]c(=S)s2)cc1	50	36	98	1
CCCCn1c(C)nc2ccc(S(N)(=O)=O)cc21	97	93	nt	-19
Cc1ccc(Cc2nn[nH]n2)cc1	113	88	103	nt
COc1cc(/C=C/C(=O)OCc2cn3cc(Cl)ccc3n2)ccc1O	94	93	nt	-57
Cc1ccc(N=C2NC(=O)CC(C(=O)Nc3cc(C(F)(F)F)ccc3Cl)S2)cc1 (configuration not stated)	95	89	99	-75
O=C(Nc1cccc(C(F)(F)F)c1)c1cc2nc(-c3ccc4c(c3)OCO4)cc(C(F)(F)F)n2n1	78	90	105	-22
COc1cc(CO)ccc1OCC(=O)N1c2ccccc2CC1C (configuration not stated)	87	85	nt	-26
CCOc1ccc(CNC(=O)c2sc3ncnc(N(C)C4CCCCC4)c3c2C)cc1	107	85	102	nt
CS(=O)(=O)N(CCc1ccccc1)CC(=O)N1CCCC1	117	98	105	6
COc1cccc(N=C2NNC(C)=C(C(=O)N(C)C)S2)c1	113	90	nt	-16
CCCCNS(=O)(=O)c1ccc2[nH]c(=S)[nH]c2c1	101	92	nt	-14
CC1(C)CC(=O)c2cnc(NCc3ccccc3)nc2C1	102	89	96	nt
CC1CCCCN1S(=O)(=O)c1ccc(CN2C(=O)c3cccnc3C2=O)cc1 (configuration not stated)	114	96	101	nt
COc1cccc2c1Oc1ncccc1N(C(=O)CCC(=O)NCCc1ccc(Cl)cc1)C2	nt	nt	109	3
C(/C=C/c1ccccc1)=N/N1CCN(c2ccccc2)CC1	98	100	98	-1
CSc1ccc(C2C3CCCc4ccccc4C3=NN2CCO)cc1 (configuration not stated)	95	92	98	35
CCCN(C(=O)c1cn(C)c(=O)c2cc(OC)c(OC)cc12)c1ccc(CC)cc1	82	98	98	nt
COc1ccc(/C=N/NC2=NS(=O)(=O)c3ccccc32)cc1	84	84	110	-37
O=C1CN=C(Nc2ccc(F)cc2)N1C1CCCC1	93	85	107	2
N#Cc1cccc(NC(=O)CSc2nc3cc(S(=O)(=O)N4CCCCC4)ccc3o2)c1	74	92	nt	-19
Cc1ccc2nc(CCc3cccc(NC(=O)c4cnccn4)c3)[nH]c2c1	nt	nt	105	-34
CCOC(=O)COc1ccc(/C=C(\C#N)c2nc3ccc(C)cc3[nH]2)cc1OC	96	88	107	-26
CSc1cc(-c2ccc(Cl)cc2)nc(-c2ccco2)c1	70	56	101	-6
COc1ccc(-c2c(C#N)c(N)nc3sc(C(=O)Nc4ccc(Br)cc4)c(N)c23)cc1OC	nt	nt	102	-20
COc1cccc(NC(=O)CN(C)S(=O)(=O)c2ccc3c(c2)CCCC(=O)N3)c1	nt	nt	111	3

2 records drawn at random from the list so far, as already listed:
SMILES	Sa growth inh	Sa growth inh second temp	GIV-Gai inh	HCMV UL50-53 inh
Cc1ccc(N=C2NC(=O)CC(C(=O)Nc3cc(C(F)(F)F)ccc3Cl)S2)cc1 (configuration not stated)	95	89	99	-75
CC1CCCCN1S(=O)(=O)c1ccc(CN2C(=O)c3cccnc3C2=O)cc1 (configuration not stated)	114	96	101	nt

(next part)
SMILES	Sa growth inh	Sa growth inh second temp	GIV-Gai inh	HCMV UL50-53 inh
COc1ccc(N2CCN(c3cc(=O)n4oc(C)cc4n3)CC2)cc1	80	82	nt	-28
O=C(Nc1nc2ccccc2c2nc3ccccc3n12)c1ccccc1	nt	nt	100	-2
CCOC(=O)c1cc(OC)ccc1C#N	100	74	98	nt
O=C(NC1CCCC1)c1cc(-c2ccc(O)cc2)on1	114	69	101	-4
Cc1nn(-c2ccccc2)c2c1-c1sc(C(=O)NC3CC3)cc1CC2	75	49	110	-62
Cc1cc(Nc2ccccc2Cl)n2nc(-c3ccco3)nc2n1	82	90	103	nt
COC(=O)c1ccc2c(c1)N(Cc1ccccc1F)C(=O)CS2=O (configuration not stated)	98	84	102	-19
Cc1nn(-c2ccccc2)nc1C(=O)NCC1CC1	116	89	93	nt
COc1cccc(CNC(=O)CN2C(=O)CCn3nc(-c4cn(C)c5ccccc45)cc32)c1OC	93	87	103	nt
Cc1nnnn1CC(=O)Nc1ccccc1	110	87	106	-3
Cc1cc(C)cc(OC(=O)CCN2C(=O)c3ccccc3C2=O)c1	-1.1*	-0.4*	105	nt
O=c1c(S(=O)(=O)c2ccccc2)cn(Cc2ccc(F)cc2)c2cc(N3CCCC3)c(F)cc12	114	95	106	nt
CCc1ccc2c(c1)C1CC(C)(NC(=S)N1)O2 (configuration not stated)	95	112	100	5
COc1ccc(CCNC(=O)c2cccc(-n3cnc4cccnc43)c2)cc1OC	nt	nt	101	1
COc1cccc(-c2ccc(SCc3nc(-c4ccccc4)no3)nn2)c1	nt	nt	108	-15
N#Cc1ccccc1COC(=O)c1nc(-c2ccccc2)n(-c2ccccc2)n1	92	88	nt	-17
Cc1nc2ncnn2c(C)c1CCC(=O)NCc1ccc(Cl)cc1	118	88	104	-22
O=C1CC(n2nc(Nc3ccccc3)n(-c3ccccc3)c2=S)C2COC1O2 (configuration not stated)	86	85	nt	0
CN1C(=O)/C(=C2\SC(=S)N(C3CCS(=O)(=O)C3)C2=O)c2cc(Br)ccc21 (configuration not stated)	89	81	97	nt
O=c1c(S(=O)(=O)c2ccccc2)c(O)cc(-c2ccccc2)n1-c1ccccc1	144	70	98	-5
O=C(CSc1nc2c(sc3ccccc32)c(=O)n1-c1ccccc1)NCc1ccco1	101	98	105	-8
Fc1ccc(Nc2nc(-c3cccc(Cl)c3)c3c(n2)-c2ccccc2OC3)cc1	106	99	107	10
Cc1ccc(C)c(NC(=O)Cn2ncc3ccccc32)c1	83	90	96	-16
O=C(O)CCCC(=O)N1CCN(C(c2ccccc2)c2ccccc2)CC1	92	86	100	-33
CC(=O)N1CCc2cc(CNC(=O)Nc3ccc(Br)c(C)c3)ccc21	111	68	100	nt

Structural class: the entries above containing a cyano group
SMILES	Sa growth inh	Sa growth inh second temp	GIV-Gai inh	HCMV UL50-53 inh
COC(=O)C1=C(C)SC(N)=C(C#N)C1c1ccc(OC(C)C)c(OC)c1 (configuration not stated)	99	77	nt	-35
N#Cc1cnc(SCCc2ccccc2)nc1N	111	82	180	-15
N#Cc1cccc(NC(=O)CSc2nc3cc(S(=O)(=O)N4CCCCC4)ccc3o2)c1	74	92	nt	-19
CCOC(=O)COc1ccc(/C=C(\C#N)c2nc3ccc(C)cc3[nH]2)cc1OC	96	88	107	-26
COc1ccc(-c2c(C#N)c(N)nc3sc(C(=O)Nc4ccc(Br)cc4)c(N)c23)cc1OC	nt	nt	102	-20
CCOC(=O)c1cc(OC)ccc1C#N	100	74	98	nt
N#Cc1ccccc1COC(=O)c1nc(-c2ccccc2)n(-c2ccccc2)n1	92	88	nt	-17

The main list resumes, starting two compounds before the break.
SMILES	Sa growth inh	Sa growth inh second temp	GIV-Gai inh	HCMV UL50-53 inh
O=C(O)CCCC(=O)N1CCN(C(c2ccccc2)c2ccccc2)CC1	92	86	100	-33
CC(=O)N1CCc2cc(CNC(=O)Nc3ccc(Br)c(C)c3)ccc21	111	68	100	nt
O=c1[nH]c(CN2CCCCC2)nc2ccccc12	96&93	97&96	104	3&-11
CC1CC(=O)NN=C1c1cccs1 (configuration not stated)	102	84	105	-68
Cc1ccc(-n2nnnc2CNC(=O)c2ccccc2)cc1C	103	97	103	nt
CCc1ccccc1NC(=O)CSc1nc(=O)[nH]nc1C	nt	nt	92	-8
Cc1ccc2c(c1)-c1nc(-c3ccc(Cl)cc3)cc(-c3coc4ccccc4c3=O)c1CO2	107	108	105	20
N#C/C(C(=S)NCc1ccccc1)=C1/NN=C2CCCCCN21	88	79	nt	-20
CCOc1ccccc1-c1cc(C(=O)N/N=C(\C)c2ccco2)[nH]n1	87	59	97	-14
CC1CCC(C(C)C)C(OC(=O)CN2CCCCC2)C1 (configuration not stated)	105	93	nt	4
CC(C)Nc1nc(Cl)nc(NC(C)(C)CO)n1	88	78	nt	-9
CC(C)(CO)C(O)C(=O)NN (configuration not stated)	99	97	93	-2
CCCC(=O)Nc1ccc2c(c1)nc1n2CCN(C(C)C)C1	nt	nt	101	-34
CNC(=S)N/N=C/c1cccc(Cl)c1	65	88	nt	-18
Cc1cc(F)ccc1NS(=O)(=O)c1cc2c3c(c1)CCN3C(=O)CC2	nt	nt	103	6
Cc1ccc(-c2onc(C)c2C)cc1S(=O)(=O)NCc1ccco1	109	92	108	nt
CCCc1cc(=O)[nH]c2c1c(C)nn2-c1cccc(F)c1	98	61	111	-25
O=C(Nc1cc(F)ccc1F)c1ccc2c(c1)nnn2C1CCCC1	94	98	103	nt
OCc1ccccc1O	81	89	nt	-46
